# Assay outcomes (PubChem BioAssay)
# MT1-MMP reporter = MT1-MMP gene expression reporter suppression – cell-based, luciferase reporter, luminescence (AID 618) | calls from a first round at 10 µM; hits with a dose series show EC50 in µM | 87,000 compounds, 0.62% hits | MT1-MMP promoter luciferase reporter cells, luminescence;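 active = over half of the reporter light lost at 10 µM or EC50 under 50 µM; inactive = the rest and hits that failed the dose series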;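 also: actives suppress MT1-MMP promoter-driven transcription so potencies describe inhibitors; HT1080 fibrosarcoma cells; overnight exposure; toxic or luciferase-blocking compounds were not removed from the actives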
# WNV protease inh = inhibitors of West Nile virus NS2B-NS3 protease. z-score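 (tested at a level between 10 and 100 µM)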. 65,000 compounds, 0.18% hits. WNV NS2B-NS3 protease, fluorogenic substrate Ex360/Em465; stronger effect = lower value. P06935;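 active = z-score at -3 or under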;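 also: score is relative to mean and spread of the compound wells of a plate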
# Target sequence (P06935 1371-1501 limits assumed): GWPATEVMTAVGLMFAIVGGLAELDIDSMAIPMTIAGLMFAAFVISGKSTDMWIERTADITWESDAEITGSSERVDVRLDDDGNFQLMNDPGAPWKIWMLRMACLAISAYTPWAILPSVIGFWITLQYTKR
# Target sequence (P06935 1502-1679 limits assumed): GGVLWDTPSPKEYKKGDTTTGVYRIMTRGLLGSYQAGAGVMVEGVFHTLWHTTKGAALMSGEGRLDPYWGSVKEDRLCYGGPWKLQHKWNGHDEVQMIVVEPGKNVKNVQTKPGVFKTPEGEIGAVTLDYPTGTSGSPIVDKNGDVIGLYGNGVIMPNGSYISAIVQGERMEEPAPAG
# Hsc70 ATP site = small molecules displacing fluorescent ligand from Hsc70 – biochemical, fluorescence polarization, primary screen (AID 568). displacement, % at 20 µM, or IC50 in µM where a hit was titrated. Hsc70 fluorescence polarization, probe displacement; higher % means a stronger effect; strong numbers were not always called active. 83,000 tested, under 10 active;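 active = displacement above 50% without optical interference and an IC50 on retest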;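 also: ATPase domain with a fluorescein-tagged ATP probe; 0% = vehicle and 100% = excess ADP; read after one hour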
# * marks the source's active call; other numbers are inactive results; i = inactive; x = not tested or not shown. The list is partial; the hit share may differ from the screen's.
SMILES,MT1-MMP reporter,WNV protease inh,Hsc70 ATP site
O=C(Cn1c(-c2cscn2)nc2ccccc21)Nc1ccc2ccccc2c1,i,x,6.5%
Cc1noc2ncnc(Sc3ccccc3Cl)c12,i,x,1.6%
O=C(Nc1ccc(F)cc1)Nc1ccc(Cl)cn1,i,-1.2,-0.7%
CCn1cc(C(=O)NCCOC)c(=O)c2ccc(C)nc21,i,-0.37,2.6%
COc1cc(C)ccc1S(=O)(=O)N1CCN(C23CC4CC(CC(C4)C2)C3)CC1,i,x,8.1%
COc1cccc(NC(=O)CCS(=O)(=O)c2cccs2)c1,i,-1.44,-6.8%
COc1ccc(Cc2nn3c(Cn4nnc5ccccc54)nnc3s2)cc1,i,-0.64,-1.3%
COc1cccc(CN(C(=O)c2cc3ccccc3oc2=O)C2CC2)c1,i,1.2,3.9%
Cc1cccc2cc(CN(Cc3ccc(F)cc3)C(=O)C(F)(F)F)c3nnnn3c12,i,x,1.5%
COCCn1c(C)cc(C(=O)COC(=O)c2ccc(NC(=O)CC#N)cc2)c1C,i,x,-1.2%
O=C(NC1CCS(=O)(=O)C1)c1c(NC(=O)C2COc3ccccc3O2)sc2c1CCCC2 (stereo unspecified),i,-1.08,0.5%
C=CCOC(=O)CN1C(=O)c2ccccc2C1=O,i,-0.81,1.4%
Cc1nnc(SCC(=O)c2cc(C)n(-c3c(C)n(C)n(-c4ccccc4)c3=O)c2C)s1,i,0.93,-1.7%
N#CC1=C(SCC(=O)c2cc3ccccc3oc2=O)NC(=O)C(C#N)C12CCCC2 (stereo unspecified),i,0.54,-6.8%
COc1ccc(NC(=O)COC(=O)CCCc2c[nH]c3ccccc23)cc1,i,x,0.2%

# Full records, quoted from the list:
# Cc1cccc2cc(CN(Cc3ccc(F)cc3)C(=O)C(F)(F)F)c3nnnn3c12 in the list: MT1-MMP reporter: i; WNV protease inh: x; Hsc70 ATP site: 1.5%
# COc1cccc(CN(C(=O)c2cc3ccccc3oc2=O)C2CC2)c1 in the list: MT1-MMP reporter: i; WNV protease inh: 1.2; Hsc70 ATP site: 3.9%

# Continued.
SMILES,MT1-MMP reporter,WNV protease inh,Hsc70 ATP site
COc1ccc(C2=C(C)CC(C)(C)NC2=O)cc1OC,i,-0.33,-12.9%
O=C(Nc1ccccc1)N1CCc2ccccc21,i,x,4.0%
O=C1N(O)C2(C=CCCC2)/C(=N\O)C12CCCCC2 (stereo unspecified),i,0.02,-1.9%
COCCNC(=O)CN(c1ccccc1OC)S(C)(=O)=O,i,0.58,-2.6%
Cc1nnc2sc(-c3ccc(NC(=O)c4cccnc4)cc3)nn12,i,-0.39,1.0%
CCOc1ccc(Nc2ncnc(N)n2)cc1,i,-0.49,-1.0%
O=C(CSc1n[nH]c(-c2cccnc2)n1)Nc1ccccc1,i,x,-1.5%
O=P(CCNCc1ccco1)(c1ccccc1)c1ccccc1,i,0.35,2.6%
CC(C)C(=O)Nc1nnc(CCc2nnc(NC(=O)C(C)C)s2)s1,i,0.32,2.2%
COc1ccccc1-n1c(=O)c2c3c(sc2n2c(SC)nnc12)CCC3,i,-0.34,2.8%
COc1cccc(-c2cc(C(F)(F)F)nc(-n3cncn3)n2)c1,i,-1.94,2.2%
Oc1ccc(-c2csc(NCc3ccco3)n2)cc1,i,-0.55,-5.3%
Cc1[nH]c2ccccc2c1C(=O)CN1CCC(C(N)=O)(N2CCCCC2)CC1,i,-0.43,-5.8%
COc1cc(OC)c(-c2nn3c(-c4ccncc4)nnc3s2)cc1OC,i,1.36,-0.1%
CC(C)n1nc(C(=O)NCCc2ccc(S(N)(=O)=O)cc2)c2ccccc2c1=O,i,0.8,-7.2%

# Reprinted from the part before: 2 compounds, then new ones.
SMILES,MT1-MMP reporter,WNV protease inh,Hsc70 ATP site
COc1cc(OC)c(-c2nn3c(-c4ccncc4)nnc3s2)cc1OC,i,1.36,-0.1%
CC(C)n1nc(C(=O)NCCc2ccc(S(N)(=O)=O)cc2)c2ccccc2c1=O,i,0.8,-7.2%
O=c1cc(-c2ccco2)oc2ccc(Cl)cc12,i,-0.16,-4.0%
CCc1nnc(NC(=O)C2Cc3ccccc3CN2S(=O)(=O)c2cccs2)s1 (stereo unspecified),i,-1.02,0.2%
COc1cccc(C2NC(=O)NC(O)(C(F)(F)F)C2C(=O)c2cccnc2)c1OC (stereo unspecified),i,-1.19,0.0%
NS(=O)(=O)c1ccc(NC(=O)C2COc3ccccc3O2)cc1 (stereo unspecified),i,x,6.3%
O=c1c2ccccc2nc2c3ccccc3c(N3CCOCC3)nn12,i,-0.43,-13.1%
Cc1occc1-c1nnc(SCC(=O)c2cc3ccccc3oc2=O)o1,i,-0.07,-12.7%
Cn1c(=O)cc(OCCCC(=O)NCc2ccc3c(c2)OCO3)c2ccccc21,i,-0.96,-4.8%
COCCn1c(CN2CCC(Cc3ccccc3)CC2)nc2c1c(=O)n(C)c(=O)n2C,i,-0.57,-2.7%
CC1(C)C(N(O)C(=O)Nc2ccccc2)N(c2cccc(Cl)c2)C(=O)N1O (stereo unspecified),i,-1.85,-7.0%
Clc1cccc(-c2ccc(/C=N/n3cnnc3)o2)c1,i,-0.98,0.4%
Cc1noc(C)c1C(=O)Nc1ccc(F)cc1F,i,x,7.3%
C=CCn1c(SCC(=O)NC(=O)NC2CCCC2)nnc1C1CCCCC1,i,-1.03,-0.7%
Brc1cccc(-c2nnc3sc(CN4CCC5(CC4)OCCO5)cn23)c1,i,-0.33,6.3%
CC(C)Cn1c(=O)c2c(nc3n2CCCN3CCc2ccccc2)n(C)c1=O,i,0.5,-2.6%
CCOc1ccc(Nc2nc3c(c(=O)[nH]2)CCC3)cc1,i,0.82,2.8%
O=c1cc(-c2ccccc2)[nH]n1-c1nc2ccccc2[nH]1,i,1.26,-7.2%
Cc1cccc(OCc2nc(C#N)c(NCc3ccc4c(c3)OCO4)o2)c1,i,-1.45,-1.8%
Cc1ccc(C)c(-n2nnnc2SCC(=O)Nc2c(C)n(C)n(-c3ccccc3)c2=O)c1,i,x,-0.8%
O=C(CNC1=NCCC1)c1ccc2c(c1)OCCO2,i,-1.96,1.6%
C=CCn1c(SCc2ccc(C#N)cc2)nnc1-c1ccccc1,i,x,-4.6%
CCOC(=O)N1CCN(c2nc(C)c3c(n2)CCCC3=O)CC1,i,0.28,0.5%
CCOC(=O)/C(C#N)=C1/SC(CC)C(=O)N1c1ccc(C)cc1 (stereo unspecified),i,0.29,-1.6%
OC(c1cccnc1)c1cccs1 (stereo unspecified),i,0.26,-1.2%
COC(=O)c1[nH]c(C)c(/C(O)=C2\C(=O)C(=O)N(CCN(C)C)C2c2ccco2)c1C (stereo unspecified),i,-0.96,7.4%
O=C(NCCc1c[nH]c2ccccc12)c1cc2sccc2n1Cc1ccccc1,i,x,6.5%
Cc1noc(C)c1CSc1ncnc2sc3c(c12)CCC3,i,-0.45,-1.2%
CC(=O)N1CCN(c2ccc(NCc3ccc4c(c3)OCO4)cc2)CC1,i,-0.28,1.3%
Cc1cc(C)cc(Nc2cnn(C34CC5CC(CC(CC(=O)O)(C5)C3)C4)c(=O)c2Cl)c1,i,x,3.5%
C=CCNC(=O)c1oc2ccc(S(=O)(=O)N(CC)CC)cc2c1C,i,0.19,-7.2%
CC(=O)c1ccc(S(=O)(=O)N2CCN(c3nc4c(C)c(C)ccc4cc3C#N)CC2)cc1,i,x,0.4%
Cc1ccc(C(C)C)c(OCC(=O)Nn2c(C)nc3ccccc3c2=O)c1,i,x,5.2%
Cc1ccc(C(=O)Nc2ncc(Cc3ccccc3)s2)o1,i,1.25,2.8%
Cc1ccc2nc3sc(C(=O)NCc4ccco4)c(N)c3cc2c1,i,x,-25.9%
COc1cc2c(cc1NC(=O)c1cccnc1)oc1ccccc12,i,x,1.7%
O=C1C2C(C(=O)N1c1ccncc1)C1C=CC2C12CC2 (stereo unspecified),i,-0.8,-0.4%
CCOc1ccc(OCC)c(Nc2cc(C)nc3nc(C)nn23)c1,i,1.11,7.3%
CCn1c(C)nc2cc(C(=O)OC(C(F)(F)C(F)F)C(F)(F)C(F)F)ccc21,i,-0.86,1.4%
CC1=CS(=O)(=O)CC1Sc1nc2ccccc2[nH]1 (stereo unspecified),i,x,-0.6%
Cc1ccc(CNc2oc(-c3cccs3)nc2C#N)cc1,i,0.41,4.3%
COc1cccc(N2CCN(CC(=O)c3c[nH]c4ccc(OC)cc34)CC2C)c1 (stereo unspecified),i,0.11,-2.2%
COCC(=O)Nc1sc2c(c1C(=O)OC)CCC(C)C2 (stereo unspecified),i,0.46,2.2%
COC(=O)n1ccc(C(=O)Nc2ccccc2F)n1,i,0.48,0.0%
COc1ccc(C(=O)CN2C(=O)NC(C)(c3ccc(C)cc3)C2=O)cc1OC (stereo unspecified),i,x,-4.7%
COC(=O)CN(c1ccccn1)S(=O)(=O)c1ccccc1,i,-1.61,-5.4%
O=C(Nc1ccc(SC(F)F)cc1)C1=COCCO1,i,-0.78,2.0%

# 3 compounds drawn at random from the list so far:
SMILES,MT1-MMP reporter,WNV protease inh,Hsc70 ATP site
COc1cccc(N2CCN(CC(=O)c3c[nH]c4ccc(OC)cc34)CC2C)c1 (stereo unspecified),i,0.11,-2.2%
Cc1ccc(C(C)C)c(OCC(=O)Nn2c(C)nc3ccccc3c2=O)c1,i,x,5.2%
COCC(=O)Nc1sc2c(c1C(=O)OC)CCC(C)C2 (stereo unspecified),i,0.46,2.2%

# (further entries)
SMILES,MT1-MMP reporter,WNV protease inh,Hsc70 ATP site
CCn1c(SCC(N)=O)nnc1-c1ccc(S(=O)(=O)N2CCN(C)CC2)cc1,i,0.12,0.9%
O=C(CSC1=NCCS1)Nc1nc2c(s1)CCCC2,i,-0.03,-1.3%
CCOc1cc(C(=O)NCc2nnc(SCC(=O)OC)n2C)cc(OCC)c1OCC,i,-0.43,-1.7%
CCCCCCNS(=O)(=O)c1ccc(Cl)s1,i,0.03,-9.0%
COC(=O)c1cc2c(ccn2-c2ccc(F)cc2)n1C(C)C,i,x,-1.3%
Cc1cccc(NCc2nc3ccccc3n2Cc2ccccc2)c1,i,x,3.5%
COCCNC(=O)CSc1nc2c(n1-c1ccccc1)CCCC2,i,-1.48,1.0%
Cc1ccc(-n2c(C)cc(/C=N/NC(=O)CC3(C)OCCO3)c2C)c(C)c1,i,x,0.4%
CC(C)(C#N)Nn1cnnc1,i,-0.56,1.7%
Cn1nnnc1SCc1cc(=O)[nH]c2ccccc12,i,-0.41,5.9%
COc1ccc(C2NCCO2)cc1OC (stereo unspecified),i,-1.11,-9.6%
O=C(CCn1cnc2ccccc2c1=O)Nc1ccc(Cl)c(Cl)c1,i,x,2.1%
CC(C)(C)NC(=O)C(c1ccc(F)cc1)N(Cc1ccco1)C(=O)c1csnn1 (stereo unspecified),i,0.08,-0.7%
CCCc1cc(=O)oc2c(CN3CCN(C)CC3)c(O)c(Cl)cc12,i,6.59,-4.1%
COc1ccccc1NC(=O)N(Cc1ccco1)Cc1cc2cc(C)cc(C)c2[nH]c1=O,i,0.32,-10.3%
Cc1nc2ccc(S(=O)(=O)NCC(=O)N(C)Cc3ccco3)cc2s1,i,-0.22,3.7%
Cc1cccc(Nc2ncnc3ccccc23)c1,i,0.12,7.8%
CCC(=O)Nc1ccc(S(=O)(=O)Nc2cccnc2)cc1,i,1.27,-1.0%
CC1=C(C(=O)Nc2cccnc2)C(c2ccncc2)n2nnnc2N1 (stereo unspecified),i,1.15,-0.9%
CCCn1c(N2CCN(Cc3cccc(C)c3)CC2)nc2c1c(=O)[nH]c(=O)n2C,i,-0.01,3.1%
COc1cccc(-c2cnc(NCc3cc(Cl)ccc3O)n2C)c1,i,-1.17,-2.0%
CCN1CC(O)=C(c2nc3ccccc3s2)C1=N,i,x,3.6%
CCC1SC2=NC(C)=C(C(=O)OC)C(c3cccs3)N2C1=O (stereo unspecified),i,-0.18,-6.0%
O=C(O)c1ccccc1CSc1nc2ccccc2o1,i,x,-5.1%
CCOC(=O)c1cc(-c2ccncc2)nc2c1c(C)nn2C,i,0.25,2.5%
Cn1c(-c2ccc(Br)cc2)cnc1NCc1cccnc1,i,x,2.7%
COC(=O)Cc1c(C)c2c(O)cc(C)cc2oc1=O,i,2.3,1.8%
COc1ccccc1S(=O)(=O)Cc1ccc(C(=O)N2CCN(c3ccccc3)CC2)o1,i,-1.11,0.1%
O=C(CSc1nnc(-c2ccc(S(=O)(=O)N3CCCC3)cc2)n1CC1CCCO1)NC1CC1 (stereo unspecified),i,0.27,-6.1%
COc1cccc(N(CC(=O)NCCSc2ccccn2)S(C)(=O)=O)c1,i,x,2.2%

# Structural class, those above with bromine (2)
SMILES,MT1-MMP reporter,WNV protease inh,Hsc70 ATP site
Brc1cccc(-c2nnc3sc(CN4CCC5(CC4)OCCO5)cn23)c1,i,-0.33,6.3%
Cn1c(-c2ccc(Br)cc2)cnc1NCc1cccnc1,i,x,2.7%

# Other results:
SMILES,MT1-MMP reporter,WNV protease inh,Hsc70 ATP site
CC(=O)OC1CC(C)(C)N(OC(=O)c2ccc(N)cc2)C(C)(C)C1,i,0.11,0.4%
CCOC(=O)c1[nH]c(C)c(CCC(=O)OC)c1C,i,-0.35,2.2%
CCn1c(=O)c(C(=O)CN2CCOCC2)c(N)n(Cc2ccccc2)c1=O,i,-0.13,6.8%
CCn1cc(C(=O)N2CCCC2)c(=O)c2cc(S(=O)(=O)N(C)C)ccc21,i,3.18,-0.1%
